Screening data as filed in PubChem.
RE007 growth inh: less growth of the S. pombe RE007 Vpr strain; S. pombe RE007 Vpr strain, BacTiter-Glo ATP luminescence, 24 h; control for the full effect not named in the record; Potency, µM (top dose mostly 92.2 µM), inactives show at the highest dose activity change, negative = less growth; 360,000 compounds, 0.21% hits; AID 651644; active = well fitted falling curve with a large enough effect; inconclusive = small, poorly fitted or top-dose-only effect; inactive = no such curve, though single readings can be large or run the other way;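 note: % is set by controls: 0 for no effect and ±100 for the full control effect; nearly all actives have a fitted effect of over 50% in size; the assay follows cell death caused by Vpr and the record does not say whether a fall means rescue or toxicity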
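Fission yeast RE007 carrying one integrated HIV-1 vpr copy, seeded at OD 0.01 in PMG+AL medium with 23 nL pinned compound. Grown 24 h at 30 degrees; viability read by BacTiter-Glo luminescence after 5 min.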
NS1 inh: blocks influenza NS1 protein function; AID 2326; 270,000 compounds, 0.4% hits; Potency, µM (series often up to 46.1 µM), for the others: at the top dose activity, positive = more growth; S. cerevisiae slowed by influenza A NS1, growth recovery by OD600; note: actives are rising curves; nearly all actives have a fitted effect of over 50% in size
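OD600 was taken as the measure of yeast growth restored by compound in an NS1-expressing S. cerevisiae strain. Cells had been washed out of glucose medium and diluted 1:100 into galactose -URA medium, pH 6.0.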
StopGo reporter: lowers the luciferase signal of an FMDV 2A StopGo reporter; human cells with a luciferase reporter of 2A StopGo recoding; control for the full effect not named in the record; Potency, µM (titrated, usually from 57.9 µM), without a hit: at the highest dose signal change, negative = less light; 410,000 compounds, 1.2% hits; active = well fitted falling curve with a large enough effect; inconclusive = small, poorly fitted or top-dose-only effect; inactive = no such curve, though single readings can be large or run the other way; tested in HEK293T cells; note: % is set by controls: 0 for no effect and ±100 for the full control effect; nearly all actives have a fitted effect of over 45% in size; luciferase light after 4 h
Marburg entry inh: blocks Marburg virus binding to or entry into cells. 300,000 compounds, 1.8% hits. Marburg virus pseudotyped entry inhibition, cell reporter; control for the full effect not named in the record; about a third of the inactives were read at about 46 µM. Potency, µM (titrated, usually from 37.8 µM), inactives show top-dose activity change, negative = inhibition, actives largely listed as inhibitors. AID 540276; active = well fitted inhibition curve with a large enough effect; inconclusive = small, poorly fitted or top-dose-only effect, or effect the other way; inactive = flat fitted curve, though single readings scatter; tested in HEK293 cells; about a fifth of its hits are not listed in these tables; note: % is set by controls: 0 for no effect and ±100 for the full control effect; luciferase read-out
Cruzain Triton: inhibitors of Trypanosoma cruzi cruzain with detergent | purified cruzain, Z-FR-AMC fluorescence, 0.01% Triton | Potency, µM, inactives show max response, negative = inhibition, most hits filed as inhibitors | 200,000 compounds, 0.43% hits; active = well fitted curve in the direction sought with a large enough effect; inconclusive = small, poorly fitted or top-dose-only effect, or another doubt; inactive = no such curve, though single readings can be large; an effect the other way counts as inactive or inconclusive;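 note: plate controls were neutral wells for no effect and buffer without enzyme for full effect; nearly all actives have a fitted effect of over 40% in size; top concentration of the series not given in the record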
Target sequence (P25779 123-467 limits assumed): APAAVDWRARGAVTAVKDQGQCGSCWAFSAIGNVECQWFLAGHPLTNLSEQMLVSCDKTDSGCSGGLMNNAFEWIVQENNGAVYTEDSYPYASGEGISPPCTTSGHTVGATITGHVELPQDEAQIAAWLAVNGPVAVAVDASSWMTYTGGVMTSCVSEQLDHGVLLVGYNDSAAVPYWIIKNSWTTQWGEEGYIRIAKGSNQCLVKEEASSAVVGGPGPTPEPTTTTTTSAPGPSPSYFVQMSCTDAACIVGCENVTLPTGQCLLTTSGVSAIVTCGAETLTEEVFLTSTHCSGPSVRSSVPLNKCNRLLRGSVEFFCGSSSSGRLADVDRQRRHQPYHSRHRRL
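Cruzain (1.5 nM) preincubated 15 min at RT with compound in 100 mM sodium acetate pH 5.5, 5 mM DTT, 0.01% Triton X-100. Reaction started with 2 uM Z-FR-AMC; AMC fluorescence (ex 360/em 450 nm) change over 60 s gave rate.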
SARS PLpro yeast: blocks SARS-CoV papain-like protease in a yeast assay | 330,000 compounds, 0.19% hits | S. cerevisiae expressing SARS-CoV PLpro, growth rescue; control for the full effect not named in the record | Potency, µM (highest dose often 32.9 µM), for inactives: at the top dose activity, positive = growth rescue; note: 0% is about no effect; nearly all actives have a fitted effect of over 55% in size; growth read by luminescence after 48 h
Cruzain noTriton: cruzain (T. cruzi) inhibition without detergent. 200,000 compounds, 2.3% hits. AID 1476. Potency, µM, without a hit: max response, negative = inhibition, actives largely listed as inhibitors. purified cruzain, Z-FR-AMC fluorescence, no detergent; active = well fitted curve in the direction sought with a large enough effect; inconclusive = small, poorly fitted or top-dose-only effect, or another doubt; inactive = no such curve, though single readings can be large; an effect the other way counts as inactive or inconclusive;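 note: plate controls were enzyme without inhibitor for no effect and buffer without enzyme for full effect; nearly all actives have a fitted effect of over 40% in size; top concentration of the series not given in the record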
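Detergent-free condition (0.00005% Triton X-100) in acetate buffer pH 5.5 with DTT. 1.5 nM enzyme and compound were pre-mixed 15 min, then 2 uM Z-FR-AMC substrate added; reaction progress from fluorescence change between first and third reads (60 s).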
LASV entry inh: blocks Lassa virus binding to or entry into cells. Lassa virus pseudotype entry inhibition, cell reporter; control for the full effect not named in the record. Potency, µM (series often up to 37.9 µM), without a hit: top-dose activity change, negative = inhibition, actives largely listed as inhibitors. 300,000 compounds, 1.2% hits; active means well fitted inhibition curve with a large enough effect; inconclusive means small, poorly fitted or top-dose-only effect, or effect the other way; inactive means flat fitted curve, though single readings scatter; tested in HEK293 cells; note: % is set by controls: 0 for no effect and ±100 for the full control effect; nearly all actives have a fitted effect of over 50% in size; luciferase read-out
* = called active by the depositor; ? = inconclusive; . = not tested or not shown; & = joins results of further samples; [ ] = remark or other dose. Unless noted, calls come from the whole dose curve; as a rule, active means well fitted rising curve with a large enough effect; inconclusive means small, poorly fitted or top-dose-only effect; inactive means no such curve, though single readings can be large or run the other way. Potency is the fitted concentration of half-maximal effect. This is a random part of the collection, and some 4.7% of all compounds hit somewhere here.

SMILES | RE007 growth inh | NS1 inh | StopGo reporter | Marburg entry inh | Cruzain Triton | SARS PLpro yeast | Cruzain noTriton | LASV entry inh
O=C(NC1CCS(=O)(=O)C1)c1cccc(Cl)c1 (stereo unspecified) | -11% | . | -3% | 7%[46.1 µM] | . | 0% | . | -1%
Cc1ccc(NC(=O)/C(C#N)=C/c2ccc(C)o2)cc1 | . | . | 6% | . | -0.7% | . | 1% | 18%[46.1 µM]
CCC(C)(C)c1ccc(Oc2ccc(NC(=O)COC(=O)C3=COCCO3)cc2)cc1 | 25% | 29% | ? | ? | -10% | -11% | 29% | ?
CC(=O)N/C(=C\c1cccc([N+](=O)[O-])c1)C(=O)NC1CCCCC1 | 13% | 11µM* | 6% | ? | -1.2% | ? | 16% | -5%
CCOC(=O)c1sc(NC(=O)CSc2nnnn2-c2ccccc2)nc1C | 14% | 4% | . | 14% | -0.6% | 3% | 11% | ?
N#Cc1c(C(F)(F)F)cc(-c2cccs2)nc1SCC(=O)Nc1ccccc1F | . | . | -8% | . | -1.8% | . | 8% | 1%[46.1 µM]
Clc1ccc(CSc2nnc3ccccn23)c(Cl)c1 | 21% | -3% | 40%[activator] | 25% | 0.8% | -22% | 1% | 12%
CC1CCCCN1S(=O)(=O)c1ccc(C(=O)Nc2nnc(-c3cccs3)o2)cc1 (stereo unspecified) | -3% | -45% | -17% | ? | -9.5% | 16% | ? | ?
CCC(=O)Nc1ccc(S(=O)(=O)NCCc2ccccc2)cc1 | -1% | 3% | 48%[activator] | -14% | 3.1% | 4% | -8% | ?
O=c1c(-c2cc3ccccc3o2)[n+]([O-])c2ccccc2n1OCc1ccccn1 | -11% | 3% | 42%[activator] | 9% | -3.8% | -28% | ? | -13%
O=C(CCN1CCCCC1)N=Nc1c(O)[nH]c2ccccc12 | 4% | . | -11% | -3%[46.1 µM] | . | -4% | . | 5%[46.1 µM]
Nn1cc(-c2ccccc2)nc1SCC(=O)N1CCN(S(=O)(=O)c2ccc(Cl)cc2)CC1 | -1% | -21% | -26% | 2%&2% | -4.3% | 34% | ? | 4%
Cc1nc(SCc2ccc(F)cc2)c([N+](=O)[O-])[nH]1 | -12% | -5% | 42%[activator] | 2% | -1.6% | 2% | -6% | -3%
Cc1nc(NCC2CCCO2)nc2c1C(=O)CC(C)C2 (stereo unspecified) | 13% | -1% | -14% | 28%[46.1 µM] | -1.5% | 3% | 13% | 5%
COc1ccc2occ(CC(=O)Nc3ccc(S(=O)(=O)Nc4nccc(C)n4)cc3)c2c1 | . | . | 37%[activator] | -3%[46.1 µM] | -3.6% | . | -3% | -2%[46.1 µM]
CSCCC(NC(=O)c1ccccc1)C(=O)N/N=C(\C)Cc1ccccc1 (stereo unspecified) | 8% | 16% | 1% | . | . | 0% | . | .
CCOCCCNC(=S)Nc1ccc(Br)cc1Cl | -6% | -6% | 44%[activator] | 0%[46.1 µM] | . | 0% | . | 7%
Cn1c2ccc(Br)cc2c2nnc(SCC(=O)O)nc21 | 6% | -5% | 6% | . | . | -1% | . | .
NC(=O)c1ccsc1NC(=O)CSc1ccccc1F | -9% | -60% | . | 18% | -2.1% | 17% | 7% | 20%
COc1ccc(O)c(C(c2c(C)[nH][nH]c2=O)c2c(C)[nH][nH]c2=O)c1 | -9% | 4% | 24% | -2%[46.1 µM] | . | 0% | . | 0%

A second format for some results above.
N#Cc1c(C(F)(F)F)cc(-c2cccs2)nc1SCC(=O)Nc1ccccc1F
  RE007 growth inh = .
  NS1 inh = .
  StopGo reporter = -8%
  Marburg entry inh = .
  Cruzain Triton = -1.8%
  SARS PLpro yeast = .
  Cruzain noTriton = 8%
  LASV entry inh = 1%[46.1 µM]
Clc1ccc(CSc2nnc3ccccn23)c(Cl)c1
  RE007 growth inh = 21%
  NS1 inh = -3%
  StopGo reporter = 40%[activator]
  Marburg entry inh = 25%
  Cruzain Triton = 0.8%
  SARS PLpro yeast = -22%
  Cruzain noTriton = 1%
  LASV entry inh = 12%

(cont.)
SMILES | RE007 growth inh | NS1 inh | StopGo reporter | Marburg entry inh | Cruzain Triton | SARS PLpro yeast | Cruzain noTriton | LASV entry inh
CC(Oc1ccccc1)C(=O)Nc1ccc(C(=O)OCc2cc(=O)n3nc(C(C)C)sc3n2)cc1 (stereo unspecified) | . | . | 15% | . | -1.0% | . | -11% | ?
COc1ccc(S(=O)(=O)NC2CC(=O)N(c3cccc(F)c3)C2)cc1OC (stereo unspecified) | -9% | . | 7% | ? | . | 0% | . | -25%
CN(NC(=O)c1ccc(Cl)cc1)c1nc(-c2ccccc2)nnc1C(F)(F)F | 1% | -36% | 32µM* | ? | -0.7% | -1% | -2% | -16%
COc1ccccc1-n1cc(CN2CCN(C3CCCC3)C(CCO)C2)cn1 (stereo unspecified) | 7% | -1% | -6% | . | . | 0% | . | .
Cc1ccc(C)c(NC(=O)CCC(=O)NNC(=S)Nc2ccccc2)c1 | 0% | . | 3% | 20%[46.1 µM] | . | 1% | . | -1%
CC1CN(C(=O)c2ccc(S(=O)(=O)Nc3ccccc3Cl)cc2)CC(C)O1 (stereo unspecified) | 8% | 2% | -24% | -11% | . | 16% | . | 1%
COc1ccc(-c2ccc3c(N)c(C(=O)NCc4ccc(Cl)cc4)sc3n2)cc1 | . | . | 9% | 0%[46.1 µM] | ? | . | ? | -2%[46.1 µM]
COc1cc(C(=O)NCCc2ccc(F)cc2)c([N+](=O)[O-])cc1OC | 3% | 6% | 6% | -1% | -4.5% | -18% | -16% | -5%
CCOc1ccc(-c2c(C(=O)N/N=C/c3ccc(Cl)cc3)nnn2-c2nonc2N)cc1 | 5% | 5% | -17% | . | . | 3% | . | .
CCNC(=S)N1CCN(S(=O)(=O)c2ccc(C)cc2)CC1 | 7% | -1% | -10% | -1%[46.1 µM] | . | -6% | . | 9%
Cc1cc(C)c(C)c(S(=O)(=O)N(C)C2CCN(C)CC2)c1C | -15% | 5% | 39%[activator] | -7%[46.1 µM] | . | -3% | . | 1%
Nc1c(C(=O)c2cccs2)oc2ccccc12 | -8% | -88% | 70%[activator] | ? | -7.7% | -1% | -17% | 15%
Cc1cc(OCC(=O)NCCc2cccc(F)c2)c2c(C)cc(=O)oc2c1 | 1% | 24% | -13% | . | . | 0% | . | .
COc1ccc(OCC(=O)N2CCN(C(=O)c3cccc(OC)c3OC)CC2)cc1 | . | . | -5% | -8%[46.1 µM] | -1.4% | . | -7% | ?
O=C(CSc1nnc(CNC(=O)c2c(F)cccc2F)o1)NCCc1ccccc1 | -8% | 6% | -9% | 5% | . | -1% | . | -1%
Fc1ccc(Oc2cnc3ccccc3n2)cc1 | 13% | . | 6% | 7%[46.1 µM] | . | -1% | . | 0%[46.1 µM]
COc1cc(C2NC(=S)NC3=C2CCc2ccccc23)cc(OC)c1OC (stereo unspecified) | -4% | 23% | ? | -2% | -0.8% | 5% | 3% | 19%
CC(C)CNC(=O)COC(=O)CCC(=O)c1ccc(F)cc1 | 18% | 0% | 1% | 1% | -3.6% | 9% | 6% | 5%
O=C(Nc1ccc(S(=O)(=O)Nc2cnc3ccccc3n2)cc1)c1ccc(Br)o1 | -2% | 15% | 42%[activator] | 0%&0% | -3.2% | 0% | -8% | 4%
N#Cc1c(Nc2ccccc2)s[nH]c1=O | 24% | 4% | 10% | ? | . | 0% | . | -6%
O=C(c1ccc(NS(=O)(=O)c2ccc3[nH]c(=O)[nH]c3c2)cc1)N1CCCCC1 | -5% | . | -5% | -1% | . | 3% | . | -3%[46.1 µM]
O=C(CC(=O)Nc1cccnc1)Nc1cccnc1 | -11% | -1% | -10% | 22% | . | 3% | . | ?
O=Cc1cnc(N2CCCCC2)s1 | 3% | 6% | 11% | -3% | . | 0% | . | 8%
O=C1/C(=C/c2ccncc2)SC(=S)N1N1CCOCC1 | 7% | 0% | -2% | -1% | . | 0% | . | 5%
CCOc1nc(NCCO)nc(Nc2cc(Cl)ccc2OC)n1 | 11% | 2% | -17% | -5% | . | 0% | . | 0%
COc1ccc(C)cc1NC(=O)C1CCN(C(=O)c2ccco2)CC1 | -13% | -38% | 8% | 0%[46.1 µM] | . | -1% | . | -6%[46.1 µM]
CC1CC=C(O)C12OCC(C)(C)CO2 (stereo unspecified) | 2% | . | -8% | ? | . | . | . | 12%
CC(C)(C)NC(=O)c1cnn2c1NC(c1ccc(F)cc1)CC2C(F)(F)F (stereo unspecified) | -3% | -5% | 0% | -2%[46.1 µM] | 5.4% | 9% | -11% | -8%
C=C(C)CSc1nnc([C@@H]2CCCN2C(=O)OC(C)(C)C)o1 | -11% | -4% | 2% | 5% | -0.9% | 0% | 11% | 1%
O=C1CN(c2ccccc2)C(=S)N1C(=O)c1ccc(Br)cc1 | -15% | -6% | 65%[activator] | ? | . | -6% | . | ?
CCOc1ccccc1NC(=O)Cn1ccn(-c2ccccc2)c(=O)c1=O | . | . | -7% | . | -6.3% | . | ? | 5%[46.1 µM]
CCN(C(=O)c1ccc2c(OC)n(CC)nc2c1)c1ccc(OC)cc1 | 4% | -26% | -17% | . | 9.0% | -7% | 7% | .
Cn1c(CCCNC(=O)c2cccs2)nc2ccccc21 | 4% | 6% | . | 3% | -3.5% | 0% | -3% | 2%
Cc1ccc(C(=O)NCCCc2ccccc2)s1 | 22% | 5% | 81%[activator] | ? | 5.7% | 0% | 7% | 26%
Cc1nnsc1C(=O)N/N=C/c1c(F)cccc1Cl | 3% | . | 8% | 4%[46.1 µM] | . | 0% | . | .
CCOC(=O)C(=CNc1ccc(Oc2cncc(Cl)c2)nc1)C(=O)OCC | 9% | -5% | -9% | ? | . | 3% | . | -18%
COc1ccc(NC(=O)CSc2ccc(-c3cccnc3)nn2)c(OC)c1 | 8% | 0% | -9% | -3% | . | -2% | . | -18%
